Biofilm kill mix: mixture kills Candida albicans biofilm cells. C. albicans biofilm persisters + clotrimazole, fluorescence viability; primary screen in compound mixtures of four per well. inhibition, % at 7.6 µM. hit rate 0.02% among 120,000;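 active = inhibition above 30.3% in the primary screen of four-compound pools, then above 30% when the compound was retested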;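 note: compounds exposed to preformed 24 h biofilms for 48 h; the number belongs to the whole pool; some results filed as inactive read as strong as hits; inactives centre near 12; 0% = biofilm with clotrimazole alone and 100% = kill control; retested singly at about 60 µM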
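System: C. albicans CAF4-2 wild-type biofilms; Medium: RPMI/MOPS medium, pH 7.0; Reagent: Clotrimazole, 50 µg/mL; Times: biofilm formation 24 h, compound exposure 48 h, 37 °C; Detection: 2-h Alamar Blue fluorescence, 535/590 nm excitation/emission; Evaluation: percent inhibition of biofilm viability.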
Numbers without * were called inactive. These rows are one share of the data; the hit share may differ from the screen's.

Molecule | Biofilm kill mix
COc1ccccc1OCCC(=O)N1CCN(c2ccccc2OC)CC1 | 16
COc1ccc(-c2csc(NC(=O)C3=NN(c4ccccc4)C(=O)CC3)n2)cc1 | 9
CCOC(=O)c1csc(N)n1 | 8
O=C(Nc1ccc(Nc2ccncc2)cc1)c1ccc(Nc2ccnc3ccc([N+](=O)[O-])cc23)cc1[N+](=O)[O-] | 13
COC(=O)CCN(C(=O)c1cccc([N+](=O)[O-])c1)c1ccccn1 | 9
Cc1ccc(S(=O)(=O)n2ccc(=O)[nH]2)cc1 | 17
Cc1ccc(NC(=S)N/N=C2\CCCCC2C)cc1 (stereo unspecified) | 12
CCOCCCNCc1c(Cl)cccc1Cl | 16
COc1ccc(C(=O)OCCN2CCCCC2)cc1 | 19
Cc1ccc(S(=O)(=O)/C(=C\N(C)C)c2cnc(Cl)s2)cc1 | 15
Cc1c(C(=O)NNC(=S)Nc2cccc(Cl)c2)nnn1-c1ccccc1 | 15
Cc1cc(-c2[nH]nc3c2C(c2ccc(Cl)cc2)C(C#N)=C(N)O3)c(C)s1 (stereo unspecified) | 12
CCOc1ccccc1NS(=O)(=O)c1ccc2c(c1)n(C)c(=O)c(=O)n2C | 4
COc1ccc(C(c2oc(CO)cc(=O)c2O)c2oc(CO)cc(=O)c2O)cc1 | 14
O=C(CSc1nnc(NC(=O)Cc2ccc(F)cc2)s1)NCc1ccco1 | 9
O=C(CC(c1ccccc1)c1ccco1)N1CCOCC1 (stereo unspecified) | 2
O=c1cc(O)c2ccccc2n1Cc1ccccc1 | 16
CCCN1C(=O)C(O)(c2c(C)[nH]c3ccccc23)c2ccccc21 (stereo unspecified) | 20
C/C=C/c1ccc(OCC(=O)Nc2ccc(C(N)=O)cc2)c(OC)c1 | 2
Cc1ccc2cccc(NC(=S)NC(=O)c3c(Br)cnn3C)c2n1 | 8
Cc1ccccc1CNC(=O)c1cc(COc2ccc(F)cc2F)on1 | 15
COc1ccc2c(c1OC)C(=O)OC2Nc1nc(-c2ccc([N+](=O)[O-])cc2)cs1 (stereo unspecified) | 26
COCCNC(=O)Cn1c(=O)n(Cc2ccc(C(=O)NCc3ccco3)cc2)c(=O)c2ccccc21 | 25
CCN(C(=O)COC(=O)c1cc(S(=O)(=O)Nc2c(C)n(C)n(-c3ccccc3)c2=O)ccc1Cl)C1CCCCC1 | 8
CC(C)c1onc(C(=O)NC(C)c2ccccc2)c1[N+](=O)[O-] (stereo unspecified) | 4
O=C(NNC(=O)C1C2CCCCC21)c1coc(=O)c(Br)c1 (stereo unspecified) | 5
O=C(CCNC(=O)Cn1ccc2ccccc2c1=O)NCCc1ccc(Cl)cc1 | 9
COc1ccc(C(=O)NCc2nnc(SCC(=O)N3CCOCC3)o2)cc1OC | 6
CCCn1c(C)cc(C(=O)COC(=O)c2ccc[nH]c2=O)c1C | 18
CCN(CC)CCNC(=O)c1cc2cc(Br)ccc2s1 | 9
COc1ccc(C2CC(c3ccc(Br)cc3)=NN2C(=O)c2cccnc2)cc1 (stereo unspecified) | 19
CCN=C1S/C(=C\c2cc(OCC)c(O)cc2Br)C(=O)N1CC | 6
C=CCOc1ccc(S(C)(=O)=O)cc1 | 26
COc1ccc(/C(N)=N/OC(=O)C2CCC(=O)N2S(=O)(=O)c2ccc(C)cc2)cc1 (stereo unspecified) | 15
CCCOCC(O)CC(CC)C(=O)NNC(=S)Nc1ccccc1 (stereo unspecified) | 20
N/C(=N\OC(=O)/C=C/c1ccc(Br)cc1)c1ccccn1 | 19
CN(C)/N=C/C=C1\CCC/C(=C/c2cccs2)C1=O | 14
N/C(=N\O)c1ccc(Cl)cc1Cl | 15
CCC(NC(=O)c1ccccc1Br)c1ccccc1 (stereo unspecified) | 12
Cc1ccc(NC(=O)c2cc(N3C(=O)C=CC3=O)ccc2N2CCOCC2)cc1Cl | 9
COc1ccc(OC)c(Cc2nnc(CCC(=O)NC3CCCCC3)o2)c1 | 19
O=C(CO)N/N=C/c1c2ccccc2cc2ccccc12 | 14
CC(Sc1nc(-c2ccc(F)cc2)cs1)C(=O)N1c2ccccc2CC1C (stereo unspecified) | 7
CC(=O)c1ccc(NC(=S)NC2CCCC(C)C2C)cc1 (stereo unspecified) | 12
Cc1nc(Cl)c(C(=O)NC(=O)NCc2ccccc2)c(C)c1Cl | 22
CC(=O)c1sc2nc(CSc3nncn3C)[nH]c(=O)c2c1C | 9
Cc1cc(C)c(NC(=O)CSc2nc3ccc(N4C(=O)c5ccccc5C4=O)cc3s2)c(C)c1 | 14
C=C(C)CSc1[nH]c(=O)cc(C)c1C#N | 23
CC1(C)CC(=O)C2=C(C1)Nc1ccccc1N(C(=O)C1CC1)C2c1ccco1 (stereo unspecified) | 3
CCOC(=O)C1(CCCc2ccccc2)CCN(C(=O)CCCn2cncn2)CC1 | 17
COc1cc(C(=O)N2CCC(n3c(C)nc4cc(F)ccc43)CC2)cc(OC)c1OC | 20
COc1cc2c(cc1OC)CN(C(=O)CSc1nnc3scc(-c4ccccc4)n13)CC2 | 13
COCCNC(=O)CSc1nnc(-c2ccccc2F)n1Cc1ccccc1 | 13
Cc1sc2nc3c(SC(C)C(=O)O)cc(C(=O)c4ccccc4O)cn3c(=O)c2c1C (stereo unspecified) | -1
O=C(CSc1nc(-c2ccco2)cc(C(F)(F)F)n1)Nc1ccc2c(c1)OCO2 | 19
COc1cccc(C2C(C(=O)/C=C/c3ccco3)=C(O)C(=O)N2CCN2CCOCC2)c1 (stereo unspecified) | 18
Cc1ccc(OCc2nnc(SCC(=O)N3c4ccccc4Sc4ccc(Cl)cc43)o2)cc1 | 20
CCOc1ccc(C(C)=O)cc1CSc1nnc(N)s1 | 26
COc1cccc(NC(=O)c2cc(CN3C(=O)c4ccccc4C3=O)ccc2OC)c1 | 4
C/C(=N\NC(=S)NCc1ccccc1)c1ccc(Cl)s1 | 9

Carrying on.
Molecule | Biofilm kill mix
O=C(N/N=C/c1ccc[nH]1)c1ccc(COc2cccc3cccnc23)cc1 | 14
Cc1c(NC(=O)/C(C#N)=C/c2ccc(-c3ccc(Cl)cc3)o2)c(=O)n(-c2ccccc2)n1C | 7
NC(=O)CC(NC(=O)Cc1cccc2ccccc12)c1ccc(NC2CCC2)c([N+](=O)[O-])c1 (stereo unspecified) | 1
COCCCNCC(O)COc1ccccc1F (stereo unspecified) | 11
CN(C)c1ccc(/C=N/NC(=O)c2ccco2)cc1 | 17
CC1(C)COC(/C=C/c2ccc([N+](=O)[O-])cc2)=N1 | 19
CN1CCN(NC(=O)c2ccc(Cl)c(S(=O)(=O)Nc3ccc(Cl)cc3)c2)CC1 | -3
COc1ccc(C(=O)Nc2ccc(C3=NNC(=O)CC3C)cc2NC(=O)c2ccc(OC)cc2)cc1 (stereo unspecified) | 8
COc1ccc(-n2cnc(N)c2C(=O)c2cccc([N+](=O)[O-])c2)cc1 | 11
CN(C#N)c1nc(Cl)nc(Nc2cccc(Cl)c2)n1 | 7
COCn1c(-c2ccc(OC)cc2)nc2ccccc21 | 14
Cc1nc2ccc(NC(=O)CCS(=O)(=O)c3ccccc3)cc2s1 | 3
O=C(/C=C/c1ccco1)Nc1nnc(-c2ccco2)s1 | 8
CCC(C)(C)NC(=O)C(c1ccncc1)N(Cc1ccc(C)cc1)C(=O)c1csnn1 (stereo unspecified) | 18
O=C(N/N=C/c1ccncc1)c1ccc(NC(=O)c2cccc(Cl)c2)cc1 | 10
O=C(Cn1c(=O)n(CC(=O)NCc2ccccc2)c2ccccc21)NCc1ccccc1 | 15
NNC(=O)Nc1cccc(C(F)(F)F)c1 | 12
CC(=O)Nc1ccc(-c2cn3cc(C)ccc3n2)cc1 | 11
CSc1cccc(NC(=O)CCC(=O)O)c1 | 15
COc1cc(/C=N/NC(=O)CN2CCCCC2)ccc1OCc1ccccc1 | -17
O=S(=O)([N-]c1nc2ccccc2nc1-n1cc[n+](Cc2ccccc2)c1)c1ccccc1 | 17
CCN(C(=O)COC(=O)c1ccc2[nH]c3c(c2c1)CCCC3)C1CCS(=O)(=O)C1 (stereo unspecified) | 1
COCCCNC(=S)NNC(=O)Cn1nc(C)c(Br)c1C | -10
Cc1ccc2c(C)c(C(=O)Nc3ccc(S(N)(=O)=O)cc3)oc2c1C | -3
C#CCOCCOCCOCCNc1nc(N2CCN(C(=O)C(Cc3ccc(O)cc3)n3cc(C(N)CC(C)C)nn3)CC2)nc(N2CCN(C(=O)C(Cc3ccc(O)cc3)n3cc(C(N)C(C)CC)nn3)CC2)n1 (stereo unspecified) | 4
Brc1ccccc1OCCCCn1cnc2ccccc21 | 21
CSc1ccc(/C=N/N2CCN(C)CC2)cc1 | -1
CCCN(CCC)CCCNC(=S)Nc1ccc2nc(N3CCN(C)CC3)cc(C)c2c1 | 0
CN(C)S(=O)(=O)c1cc(NC(=O)CN2CCc3ccccc32)ccc1Cl | 8
Cc1cccc(C)c1NC(=O)C(=O)NCCCN1CCOCC1 | 4
Cc1cc(Br)ccc1NC(=S)N1CCOCC1 | 33
COc1ccc(/C=N/n2c(-c3n[nH]c4c3CCC4)n[nH]c2=S)c(OC)c1OC | 23
CCN1/C(=C/C(=S)Nc2ccccc2)Sc2ccccc21 | 22
NC(N)=Nc1nc2cc([N+](=O)[O-])ccc2o1 | 25
O=C1N=C(N2CCN(c3ccccc3)CC2)S/C1=C/c1ccco1 | 21
COc1ccccc1CCNC(=O)c1cc(-c2ccccn2)nc2ccc(Br)cc12 | 8
O=C1C2CCCN2C(=S)N1Cc1ccccc1 (stereo unspecified) | 11
FC(F)Oc1ccc(NC(=S)Nc2ccc3cn[nH]c3c2)cc1 | 20
Cc1ccc(-c2cc(Cc3cccs3)c(=O)[nH]n2)cc1 | 13
COc1cc(/C=N/NC(=O)c2nonc2C)ccc1O | 9
COc1ccc(N2CCN(C(=O)Cn3cnc4c(cnn4-c4ccccc4)c3=O)CC2)cc1 | 3
CC1OC23CCCCC2C(C#N)(C(=N)O3)C1(C#N)C#N (stereo unspecified) | 13
COc1cccc(NC(=O)COC(=O)/C=C/c2ccc(Cl)cc2Cl)c1 | 16
CCCCCCCNC1=CC(=O)CC(c2ccccc2)C1 (stereo unspecified) | 13
CCn1nc(C)cc1C(=O)Sc1ccc(C)cc1 | 14
C#CCOCCOCCOCCNc1nc(N2CCN(C(=O)[C@H]([C@@H](C)CC)n3cc([C@@H](N)Cc4ccc(O)cc4)nn3)CC2)nc(N2CCN(C(=O)[C@H]([C@@H](C)CC)n3cc([C@@H](N)CC(C)C)nn3)CC2)n1 | 5
Cc1c(Br)c([N+](=O)[O-])nn1CC(=O)Nc1sc2c(c1C(=O)OC(C)C)CCC(C)C2 (stereo unspecified) | 24
CCCOc1ccc(N2C(=O)CC(N(Cc3ccccc3)N=O)C2=O)cc1 (stereo unspecified) | 9
CCOc1ccc(-c2nn(-c3ccccc3)cc2/C=C2\SC(=S)N(Cc3ccco3)C2=O)cc1 | 15
COc1cc(C(C)=O)ccc1Oc1cnccn1 | 19
O=C(Cc1ccc(Br)cc1)NNC(=O)Nc1ccc(Cl)cc1 | -14
CC(=O)N(C)c1ccc(OCC(O)Cn2c(C)nc3ccccc32)cc1 (stereo unspecified) | 3
O=C(CS)Nc1ccc2ccccc2c1 | 27
O=C(COC(=O)CNC(=O)c1ccccc1)Nc1ccc(F)c([N+](=O)[O-])c1 | 14
CCOC(=O)c1c(C)[nH]c(C(=O)COC(=O)/C=C/c2cccc(OC)c2OC)c1C | -7
CCn1c(O)c(/C=C/C=C/C=Nc2ccccc2)sc1=S | 11
CCNc1nc(NC(C)C)nc(ON=C(C)C)n1 | 14
O=C(Nc1ccc(F)cc1)C1CCC(CNc2c(N3CCCCC3)c(=O)c2=O)CC1 (stereo unspecified) | 25
Cc1csc(NC(=O)CSc2nnnn2C)n1 | 11
O=C1CCC(=O)N1CC(=O)N(c1ccccc1)c1ccccc1 | 10

Filtered by structure: the compounds so far containing a COOH group
Molecule | Biofilm kill mix
Cc1sc2nc3c(SC(C)C(=O)O)cc(C(=O)c4ccccc4O)cn3c(=O)c2c1C (stereo unspecified) | -1
CSc1cccc(NC(=O)CCC(=O)O)c1 | 15

The listing picks up, repeating the two entries before the break.
Molecule | Biofilm kill mix
Cc1csc(NC(=O)CSc2nnnn2C)n1 | 11
O=C1CCC(=O)N1CC(=O)N(c1ccccc1)c1ccccc1 | 10
CC1(C(=O)NCCc2c[nH]c3ccccc23)C=CCN1C(=O)c1ccccc1 (stereo unspecified) | 3
CCCNC(=O)c1cccc(Cn2cc(Br)c([N+](=O)[O-])n2)c1 | 11
O=C(NCCc1ccccc1)C(c1ccccc1)N(C(=O)c1csnn1)C1CC1 (stereo unspecified) | 15
COC(=O)Cc1ccc(NC(=S)NCCSc2ccc(C)cc2)cc1 | 12
COc1cccc(NC(=S)N2CCc3cc(OC)c(OC)cc3C2)c1 | 6
Cc1cc(N/N=C2\CC(C)CC(C)(C)C2)nc2ccccc12 (stereo unspecified) | 13
C=CCSc1nnc(CCCCCN2C(=O)c3cccc4cccc(c34)C2=O)o1 | 8
CCN(CC)S(=O)(=O)c1cccc(NC(=O)CCSc2ccc(Cl)cc2)c1 | 4
Cn1c(=O)n(CC(=O)N2CCOCC2)c2ccccc21 | 14

Individual results from the entries so far:
`COc1cccc(NC(=S)N2CCc3cc(OC)c(OC)cc3C2)c1` in Biofilm kill mix = 6
`COC(=O)Cc1ccc(NC(=S)NCCSc2ccc(C)cc2)cc1` in Biofilm kill mix = 12
`CC1(C(=O)NCCc2c[nH]c3ccccc23)C=CCN1C(=O)c1ccccc1` (stereo unspecified) in Biofilm kill mix = 3

Screening results from PubChem BioAssay.
